# HIV Env fusion: HIV envelope-mediated fusion inhibition | HeLa-JRFL Env/CEM21 cell fusion, luciferase | inhibition, % at 12.3 µM | 360,000 tested, 1.1% active | AID 651610;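 active = mean replicate inhibition score of at least 50 and every replicate individually at or above 50; inconclusive = only one of the two criteria met; inactive = mean below 50 and not all replicates reaching 50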;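 also: 0% = plate neutral controls and 100% = maraviroc near 300 nM; one replicate is shown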
# Yeast UUG start: modulators of start codon recognition fidelity in yeast; activity score, % at 18.7 µM; S. cerevisiae UUG-firefly luciferase reporter, luminescence/redox ratio; 350,000 tested, 0.13% active;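 active = replicate mean at a twofold rise or more, about +100% in these data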;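 also: firefly luciferase made from a UUG start codon reports start codon fidelity; reporter light over untreated wells divided by growth signal over untreated wells; some hits fall short of that in this replicate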
# MT1-MMP act inh: blocks activation of human MT1-MMP. P50281. HT1080 RFP-PRO-GFP cells, GFP/RFP ratio fluorescence, overnight; percent of plate control window, DMSO zero. 360,000 tested, 0.061% active. GFP/RFP ratio change, % at 20 µM;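 active = GFP/RFP ratio change of at least 30% with cell ATP level not reduced by more than half and red fluorescence within 50% of control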; also: strong numbers were not always called active
#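 Material: RFP-PRO-GFP reporter HT1080 cells. Dosing: single-point 20 µM compound, 1% DMSO. Controls: DMSO and RFP-L50D-GFP cell wells. Timing: cells overnight before dosing, compound overnight, 37 °C, 5% CO2. Measure: GFP/RFP fluorescence ratio.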
# CSC inhib: cancer stem cell inhibition | cancer stem cell-like cells viability, luminescence | inhibition, % at 7.5 µM | 300,000 tested, 1.1% active | AID 2717;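 active = mean at 75% or more and at least half the replicates too; inconclusive = mean and replicates disagree; tested in HMLE shEcad cells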;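 also: 0% = median of negative and 100% = median of positive control wells; the first replicate is given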
# eIF4H FP inh: inhibitors of RNA binding by human eIF4H | AID 2012 | inhibition, % at 35 µM | 290,000 tested, 0.94% active | eIF4H fluorescence polarization binding assay;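 active = 50% or more with normal probe brightness, or confirmed in later tests; inconclusive = above 50% with abnormal brightness, or retests that disagree; inactive = below 50% or failed in later tests; about a fifth of its hits are not listed in these tables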;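 also: calls also rest on retests at 20 µM and on dose response follow-up; 0% = protein and probe with vehicle and 100% = probe without protein; strong numbers were not always called active; many hits fall short of the cut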
# PABP polyA inh: blocks human PABP binding to poly(A) RNA; inhibition, % at 35 µM; 290,000 tested, 1% active; AID 2014; P11940; fluorescence polarization;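 active = 50% or more with normal probe brightness, or confirmed in later tests; inconclusive = above 50% with abnormal brightness, or retests that disagree; inactive = below 50% or failed in later tests; about a fifth of its hits are not listed in these tables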;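 also: calls also rest on retests at 20 µM and on dose response follow-up; controls were probe without protein and protein plus probe with vehicle; some compounds called inactive have numbers as strong as hits; many hits fall short of the cut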
# Target sequence (P11940 whole entry, looked up): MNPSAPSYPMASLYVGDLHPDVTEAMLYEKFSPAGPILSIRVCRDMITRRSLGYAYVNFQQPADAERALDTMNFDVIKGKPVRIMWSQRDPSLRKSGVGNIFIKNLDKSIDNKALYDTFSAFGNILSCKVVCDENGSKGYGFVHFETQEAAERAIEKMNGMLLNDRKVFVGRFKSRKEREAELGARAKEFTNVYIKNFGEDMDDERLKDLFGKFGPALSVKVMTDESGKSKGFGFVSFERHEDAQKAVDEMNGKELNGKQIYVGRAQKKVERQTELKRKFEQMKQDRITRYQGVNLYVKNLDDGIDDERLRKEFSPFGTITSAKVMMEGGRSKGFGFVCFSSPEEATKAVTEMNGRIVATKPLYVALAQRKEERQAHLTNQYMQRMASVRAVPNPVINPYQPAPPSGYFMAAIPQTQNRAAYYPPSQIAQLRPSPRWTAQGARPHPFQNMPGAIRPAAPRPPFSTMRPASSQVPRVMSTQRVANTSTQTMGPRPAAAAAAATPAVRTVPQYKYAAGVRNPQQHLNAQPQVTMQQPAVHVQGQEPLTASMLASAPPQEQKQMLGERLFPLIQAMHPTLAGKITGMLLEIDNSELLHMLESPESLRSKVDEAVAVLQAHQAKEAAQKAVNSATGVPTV
# Rce1 inhib: yeast Ras-converting enzyme inhibition | calls only | yeast membranes, quenched prenylated peptide cleavage fluorescence | AID 2563 | 290,000 tested, 0.27% active | Q03530;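 active = fall in fluorescence gain of 50% or more versus controls, with final raw signal at or below 3038400; inconclusive = same 50% fall but final raw signal above 3038400; inactive = fall in fluorescence gain under 50%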;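 also: plate controls were neutral control wells for no effect and wells lacking membranes for full effect; tested at 10 µM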
# Target sequence (Q03530 whole entry, looked up): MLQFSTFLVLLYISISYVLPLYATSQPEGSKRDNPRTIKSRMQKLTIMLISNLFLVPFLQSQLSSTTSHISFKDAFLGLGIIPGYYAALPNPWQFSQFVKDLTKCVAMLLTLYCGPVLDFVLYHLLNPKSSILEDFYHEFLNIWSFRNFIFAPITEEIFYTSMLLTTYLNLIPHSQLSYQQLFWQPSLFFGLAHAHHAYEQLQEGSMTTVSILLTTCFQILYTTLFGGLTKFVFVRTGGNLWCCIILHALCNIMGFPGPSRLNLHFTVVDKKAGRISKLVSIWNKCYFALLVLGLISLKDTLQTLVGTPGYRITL
# eIF4H FP inh retest: also measured in eIF4H FP inh; calls as there; inhibition, %; compound at 20 µM; confirmation average;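 mean of two retest wells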
# PABP polyA inh retest: recorded beside PABP polyA inh, whose call it bears; inhibition, %; compound at 20 µM; confirmation repeats;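 mean of two retest wells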
# MT1-MMP act inh RFP: also measured in MT1-MMP act inh; calls as there; RFP signal change, %; measured here: RFP expression control read;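 0 = vehicle wells; hits needed this value within 50% of zero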
# Active calls of the source: *; i = inactive; u = inconclusive; x = no result given; + = active, no number. Not all compounds are listed, so the mix of outcomes need not match the whole.
SMILES,HIV Env fusion,Yeast UUG start,MT1-MMP act inh,MT1-MMP act inh RFP,CSC inhib,eIF4H FP inh,PABP polyA inh,Rce1 inhib,others
CCOC(=O)c1cc2sccc2n1CC(=O)OC(C)C,6,-12,0,3,3,4,-8,i,
Cc1ccc(C(NC(=O)C2CCN(CCOc3ccc(Cl)cc3)CC2)c2ccccn2)cc1 (stereo not drawn),6,-16,2,1,x,x,x,x,
COc1ccc(OC)c(Nc2nnc(C)c(=O)[nH]2)c1,-1,x,x,x,3,-12,10,i,
CC(=O)Nc1ccc(S(=O)(=O)c2c(N)n(CCN3CCOCC3)c3nc4ccccc4nc23)cc1,x,-13,-1,3,-22,-2,-1,i,
O=C(NC(=S)Nc1ccccc1N1CCCCC1)c1ccc(-c2cccc([N+](=O)[O-])c2)o1,-95,-13,-3,0,47,106,99,i,eIF4H FP inh retest=2;PABP polyA inh retest=0
COc1ccc(CCc2nnc(CCC(=O)NCc3cc(C(C)C)no3)o2)cc1,-40,x,3,8,-12,-3,0,i,
O=C(CSCC(=O)NC1CC1)Nc1ccc2ccccc2c1,x,x,-1,-5,x,2,4,i,
CCC1CCCCN1C(=O)CN1C(=O)c2ccccc2S1(=O)=O (stereo not drawn),12,-20,3,-2,4,x,x,i,
NCCCn1c(C(=O)c2cc(Cl)c(N)c(Cl)c2)c2ccc(C(F)(F)F)cc2[n+]1[O-],25,-2,4,-1,-10,x,x,+,
COc1ccc(S(=O)(=O)c2c(N)n(Cc3ccco3)c3nc4ccccc4nc23)cc1,x,-6,-93,13,8,u,u,i,
O=C(Nc1cccc(F)c1)c1cc(S(=O)(=O)N2CCOCC2)cs1,21,x,5,0,-23,-1,-14,i,
O=C(NCc1ccccn1)Nc1ccccc1,-12,-15,1,4,x,2,-2,i,
CCC1CN(C(=O)NCc2ccccc2)c2cc(Cl)ccc2O1 (stereo not drawn),13,6,-3,-2,-6,-1,4,i,
CCCn1c(C(O)c2ccc(OC)cc2)nc2ccccc21 (stereo not drawn),x,-27,1,1,-18,-8,22,x,
COc1ccc(C(=O)NNC(=O)CN2CCC(n3nnc4cc(F)ccc43)CC2)cc1,-8,-8,x,x,-10,-7,2,i,
Cc1c(C=O)c(=O)n(-c2ccccc2)n1-c1ccccc1,-5,-10,4,5,-5,-8,1,i,
CCOC(=O)c1ccccc1OCc1cc(/C=N/n2cnnc2)ccc1OC,-77,-23,3,1,10,0,-7,i,
Cc1ccc(NC2OC(CO)C(O)C2O)cc1[N+](=O)[O-] (stereo not drawn),-2,-16,0,5,-9,-1,41,i,
CN(Cc1ccccc1)c1nc(N)c([N+](=O)[O-])c(Nc2cccc(F)c2)n1,11,14,2,-4,18,-10,-4,i,
Cc1sc2nc(CN(Cc3ccccc3)C(=O)NC3CCCCC3)[nH]c(=O)c2c1C,-16,-9,-12,-8,48,x,x,i,
Cc1cccc(NC(=O)COC(=O)CNC(=O)C2CCCCC2)c1,x,-12,-3,2,3,2,0,x,
Cc1cc(OCCN2CCOCC2)ccc1C(C)C,6,-9,-4,-2,-12,15,4,i,
O=C(Cn1ccnc1[N+](=O)[O-])N(CCO)CCO,0,-10,3,4,x,x,x,x,
COc1cccc(Oc2c(C)oc3c(CN4CCOCC4)c(O)ccc3c2=O)c1,-2,-8,-2,5,x,x,x,x,
COc1cccc(/C=N/NC(=O)CNC(=O)C2COc3ccccc3O2)c1O (stereo not drawn),20,x,2,1,x,-1,22,i,
N#C/C(=N/Nc1ccc(OC(F)(F)F)cc1)C(N)=S,-33,x,-28,-39,62,-7,0,i,
CCN(CCCNC(=O)COc1cc(=O)n(C)c2ccccc12)c1ccccc1,-78,-12,6,5,-11,10,8,i,
COc1ccc(CC(=O)O/N=C(\N)c2ccccn2)cc1,-2,x,1,0,-15,3,5,i,
CCN(C(=O)CSc1nnnn1-c1ccccc1)C1CCS(=O)(=O)C1 (stereo not drawn),-7,x,1,2,-6,3,4,i,
Cc1cccc(Oc2ccc(S(=O)(=O)N3CCCCC3)cc2NC(=O)C2=COCCO2)c1,0,-3,2,-7,x,x,x,x,
CCN1CCN(c2ncc(C(=O)Nc3c(F)cc(F)cc3Br)c3ccccc23)CC1,-4,-12,-22,-11,19,11,10,i,
Cc1ccc(N(CC(=O)N/N=C/c2cc(C)n(-c3ccccc3)c2C)S(C)(=O)=O)c(C)c1,x,-14,0,4,5,-6,-7,i,
CCSC(=N)N,-10,-23,4,0,0,x,x,x,
O=C(NC(=S)NC1CCSC1=O)c1ccc([N+](=O)[O-])cc1 (stereo not drawn),x,-19,-4,-2,-9,1,6,x,
C/C(CC(=O)Nc1ccc(F)cc1)=N\NC(=O)Cc1csc(N)n1,18,-24,0,3,22,4,-3,i,
CCOc1ccc(N2CC(C(=O)NCCc3c[nH]c4ccc(C)cc34)CC2=O)cc1 (stereo not drawn),22,-12,-1,-2,-12,4,2,i,
COc1cccc(N2CCc3c(C)nc4ccc(Cl)cc4c32)c1,16,8,-10,-6,39,-10,13,i,
N/C(=N\OC(=O)CC1CCCCC1)c1cccnc1,x,-14,1,-3,9,13,6,i,
CC(=O)Nc1cccc(NS(=O)(=O)c2ccccc2[N+](=O)[O-])c1,-5,x,2,1,1,-6,4,i,
CC(OC(=O)c1cc(Br)ccc1O)C(=O)Nc1ccc(S(=O)(=O)N2CCCC2)cc1 (stereo not drawn),x,-22,-8,-18,20,x,x,x,
CC(Oc1ccc(Br)cc1)C(=O)Nc1ccncc1 (stereo not drawn),20,x,-1,-17,-6,-2,-1,i,
CC(C)Oc1ccccc1OCCCOc1cccc2cccnc12,-23,-7,-8,1,-5,94,129,x,eIF4H FP inh retest=3;PABP polyA inh retest=-6
Clc1cccc(Cl)c1CNCCCSc1ncccn1,4,-16,1,-1,12,2,18,i,
COc1ccc2nc(/C=N/NC(=O)[C@H](C)NC(=O)OC(C)(C)C)ccc2c1,x,x,x,x,-2,-2,2,i,
CC(=O)c1cccc(S(=O)(=O)N2CCC(C(=O)OC3CCOC3=O)CC2)c1 (stereo not drawn),-20,-6,-4,1,x,x,x,x,
O=C(COC(=O)c1ccc2ncsc2c1)NCc1ccc(F)cc1,x,-12,-3,0,6,x,x,x,
N#CCCN(CCC#N)S(=O)(=O)c1ccc(C(=O)Nc2nc(-c3ccccc3)c(C(=O)c3ccccc3)s2)cc1,-14,-10,8,-5,20,4,0,i,
C[C@H](CO)N1C[C@H](C)[C@@H](CN(C)Cc2ccncc2)Oc2c(NC(=O)Cc3ccccc3)cccc2C1=O,-46,-11,0,-4,2,x,x,x,
O/N=C/c1cc(Br)ccc1OCc1ccccc1F,-21,-9,2,-9,44,x,x,i,
COCCNC(=O)CCn1nc(-c2ccc(C)cc2)c2ccccc2c1=O,7,-8,2,-6,0,-2,-2,i,
# Next section
SMILES,HIV Env fusion,Yeast UUG start,MT1-MMP act inh,MT1-MMP act inh RFP,CSC inhib,eIF4H FP inh,PABP polyA inh,Rce1 inhib,others
Cc1ncc([N+](=O)[O-])n1CC(=O)Nc1ccccc1Cl,-6,-12,0,3,x,x,x,x,
O=C(Cc1ccc(Br)cc1)Nc1nc2ccccc2[nH]1,-15,x,3,1,13,2,6,i,
CCOC(=O)/C(C#N)=C/C1=C(N2CCCC2)CC(C)(C)OC1,x,-21,-6,3,-10,-4,-11,i,
CCN(c1ccccc1)S(=O)(=O)c1ccc(C(=O)Nc2nnc(COC)o2)cc1,x,-35,-1,0,-10,5,0,i,
O=C(Cc1c(F)c(F)c(F)c(F)c1F)OC12CC3CC(C1)C(=O)C(C3)C2,-5,-19,-2,-1,0,-18,-6,i,
CC(C(=O)NCc1ccccn1)N1C(=O)c2ccccc2C1=O (stereo not drawn),-50,-7,5,1,2,-2,-9,i,
CCN(CC(=O)NCc1cccs1)C(=O)CCOc1ccccc1,3,-15,-2,4,-19,x,x,x,
Cc1ccccc1-n1c(-c2ccc(=O)[nH]n2)n[nH]c1=S,0,-10,1,2,x,-7,-11,i,
COc1ccc(C(C(=O)NCc2ccc(F)cc2)N(Cc2cccnc2)C(=O)c2snc(C(N)=O)c2N)cc1 (stereo not drawn),-1,-5,0,3,-12,1,4,i,
Cc1ccc(OCC(=O)NCCCNC(=O)c2ccco2)cc1C,-4,-32,2,3,-2,-12,-3,i,
COc1ccc(-c2nnc(SCC(=O)Nc3sc4c(c3C#N)CCCC4)n2-c2ccccc2)cc1,x,22,0,-5,x,-5,1,i,
CC(=O)Nc1ccc(N(C(=O)Cn2nnc3ccccc32)C(C(=O)NC2CCCC2)c2ccc(O)c(O)c2)cc1 (stereo not drawn),-13,x,2,6,-8,-6,-4,i,
CCCC1CC(CSc2ncn[nH]2)OC1=O (stereo not drawn),17,-12,2,2,0,-9,4,i,
Cc1ccc(C(=O)N2CCCC(CCC(=O)NCc3ccc(F)c(F)c3)C2)cn1 (stereo not drawn),-9,4,5,3,x,-6,3,i,
CC1(C)C2CCC1(C)C(OCCNCCOC(=O)Nc1ccccc1)C2 (stereo not drawn),69*,3,-6,-8,0,2,-6,i,
COCCNC(=O)c1cc(Br)ccc1Cl,-9,-10,0,0,-7,-2,6,i,
COc1ccc(OC)c(/C=N/NC(=O)c2cc3c(OC)cccc3[nH]2)c1,1,x,-1,0,10,1,-4,i,
O=C(N/N=C/c1ccc(OCCCF)cc1)c1cc(OCC(F)(F)F)ccc1OCC(F)(F)F,x,-19,3,4,-7,-12,-5,i,
CC(C)C(=O)NC(=S)Nc1ccc(S(=O)(=O)Nc2ccccc2)cc1,-21,-29,-15,-2,34,0,4,i,
Cc1cc(C)n(-c2ncnc3c2oc2ccccc23)n1,x,-20,-1,1,x,1,3,i,
CC(C)(C)NCC(=O)c1c[nH]c2ccccc12,-22,-15,-1,3,-3,-5,-9,i,
CC1(C)CN(c2ccc(Br)cc2Br)C1=O,-11,x,2,2,3,-7,-2,i,
COc1ccc(OC)c(C(=O)COC(=O)c2cc(C)oc2C)c1,x,-3,-1,-4,-6,0,5,i,
CCn1c(CCNC(=O)c2ccc(Cl)cc2)n[nH]c1=S,x,-16,0,1,-2,-5,-3,i,
CN(C)c1ccc(C=Cc2cnccn2)cc1,-2,-52,-17,-1,x,x,x,x,
O=C(/C=C/c1ccc(S(=O)(=O)N2CCOCC2)cc1)NC(=S)Nc1ccc(Cl)cc1Cl,-66,x,0,3,11,-8,-4,i,
CCOc1ccc(OCCCC(=O)ON=C(N)c2ccccc2C)cc1,-8,-14,-1,1,x,x,x,x,
N#Cc1cccc(S(=O)(=O)Nc2c(NC3CCCCC3)c3ccccc3oc2=O)c1,x,5,-2,-3,x,-1,14,i,
CC(=O)Nc1ccc(N=Nc2c(C)[nH]n(C(N)=S)c2=O)cc1,10,x,7,1,-10,-3,-1,i,
Nn1c(SCC(=O)Nc2ccc(F)cc2)nnc1-c1ccccn1,-1,-16,7,6,9,5,-1,i,
Cc1occc1-c1nnc(SCc2nc3ccccc3c(=O)n2CC#N)n1C,11,-15,-13,5,-7,-3,11,i,
COc1ccc(C=O)cc1OC(=O)N1CCOCC1,-2,x,2,4,-13,-4,12,i,
O=C(N/N=C/c1c(Cl)cccc1Cl)c1cccc(F)c1,x,x,-6,5,-5,-10,6,i,

# Bioassay records as filed in PubChem BioAssay.
